Vaccinia inh: Vaccinia orthopox stage-specific inhibition. Vaccinia-infected cells, mCherry/Venus stage reporter fluorescence; hits give low values; some inactives read as strong as hits. activity change (mCherry), % (test concentration not listed). 89,000 tested, 0.01% active. AID 1053133;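 active means mCherry past -33% and 40 or more points under the early reporter, replicates agreeing; inconclusive means past -33% without that gap or agreement; tested in A549 cells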;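 further: scaled between vehicle wells and reference inhibitor wells; 23 nL library stock went into each well; one replicate is shown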
Vaccinia inh Venus: also measured in Vaccinia inh; calls as there; activity change (Venus), %; measured here: Venus reporter, other viral stage;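 negative = less Venus signal; first of two replicates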
* = called active by the depositor; ? = inconclusive; · = no result given.

SMILES	Vaccinia inh	Vaccinia inh Venus
C[C@H](O)C#Cc1ccc2c(c1)O[C@@H](CN(C)Cc1ccccc1)[C@H](C)CN([C@H](C)CO)S2(=O)=O	6	-6
C[C@H]1CCCCO[C@@H](CN(C)S(=O)(=O)c2ccc(F)cc2)[C@@H](C)CN([C@@H](C)CO)C(=O)c2cc(NC(=O)C3CCCCC3)ccc2O1	?	·
Cc1nn(C)cc1NC(=O)C[C@H]1CC[C@@H]2[C@H](COc3ccc(NC(=O)C4CCC4)cc3C(=O)N2C)O1	2	0
COc1ccc(NC(=O)N(C)C[C@@H]2Oc3c(NS(=O)(=O)c4ccc(Cl)cc4)cccc3C(=O)N([C@@H](C)CO)C[C@H]2C)cc1	6	3
COc1ccc(NC(=O)N(C)C[C@@H]2Oc3c(NS(=O)(=O)c4cn(C)cn4)cccc3C(=O)N([C@H](C)CO)C[C@H]2C)cc1	8	17
C[C@@H]1CN([C@H](C)CO)C(=O)c2cccc(NS(C)(=O)=O)c2O[C@@H]1CN(C)Cc1ccc(C(F)(F)F)cc1	-1	5
C[C@H](CO)N1C[C@H](C)[C@@H](CN(C)S(=O)(=O)c2cn(C)cn2)OCc2ccccc2-c2ccccc2C1=O	17	5
Cc1ccc(S(=O)(=O)Nc2ccc3c(c2)CC(=O)N([C@@H](C)CO)C[C@H](C)[C@H](CN(C)S(=O)(=O)c2c(C)noc2C)O3)cc1	-21	70
COc1ccccc1-c1cnc2c(c1)C(=O)N([C@H](C)CO)C[C@H](C)[C@@H](CN(C)Cc1cncnc1)O2	9	-6
Cc1ccccc1S(=O)(=O)N(C)C[C@H]1OCc2cn(nn2)CCCC(=O)N([C@H](C)CO)C[C@H]1C	-1	4
C[C@H]1CN([C@@H](C)CO)S(=O)(=O)c2ccc(C#CC3(O)CCCC3)cc2O[C@@H]1CN(C)C(=O)Nc1ccccc1	-17	-19
C[C@H](CO)N1C[C@H](C)[C@@H](CN(C)Cc2ccc(C(=O)O)cc2)Oc2ccc(NS(=O)(=O)c3ccc(Cl)cc3)cc2C1=O	22	5
C[C@@H]1CN([C@@H](C)CO)C(=O)c2cc(NC(=O)Nc3ccccc3)ccc2O[C@H]1CN(C)Cc1ccc(C(F)(F)F)cc1	-35	-24
C[C@H]1CN([C@@H](C)CO)C(=O)c2cc(NC(=O)Nc3ccc(C(F)(F)F)cc3)ccc2O[C@H]1CN(C)Cc1ccccc1	?	·
CCC(=O)N[C@H]1CC[C@H](CCn2cc(C3CC3)nn2)O[C@@H]1CO	2	2
CN1CCN(C(=O)C[C@H]2CC[C@@H]3[C@H](COC[C@H](O)CN3CC3CCOCC3)O2)CC1	-1	1
CN(C)C(=O)C[C@@H]1CC[C@@H]2[C@H](COC[C@@H](O)CN2Cc2ccc(C(F)(F)F)cc2)O1	?	·
CC=Cc1ccc2n(c1=O)C[C@@H]1[C@@H](CO)[C@H](C(=O)NCCC)[C@H]2N1CCC(F)(F)F (mixture of isomers)	19	13
N#C[C@H]1[C@@H](c2ccccc2C2=CCCC2)[C@@H](CO)N1C(=O)c1cccc(F)c1	-7	-4
CC(C)NC(=O)N(C)C[C@@H]1Oc2ccc(NC(=O)Nc3ccccc3)cc2CC(=O)N([C@H](C)CO)C[C@H]1C	19	12
CCCN(C)C[C@@H]1Oc2cc(-c3cccnc3)ccc2S(=O)(=O)N([C@H](C)CO)C[C@@H]1C	22	23
C[C@@H]1CCCCO[C@H](CN(C)Cc2ccc(C(=O)O)cc2)[C@H](C)CN([C@H](C)CO)C(=O)c2cc(NC(=O)c3ccncc3)ccc2O1	22	7
CO[C@H]1CN(C)C(=O)c2ccc(NC(=O)c3cc(C)on3)cc2OC[C@H](C)NC[C@H]1C	-2	1
COc1ccc(NC(=O)Nc2ccc3c(c2)C(=O)N([C@H](C)CO)C[C@H](C)[C@H](CN(C)C(=O)Nc2ccc4c(c2)OCO4)OCCCC[C@H](C)O3)cc1	7	-2
C[C@@H]1CN([C@@H](C)CO)C(=O)c2cc(NC(=O)CCN3CCOCC3)ccc2O[C@@H]1CN(C)C	7	7
C[C@@H]1CN([C@H](C)CO)C(=O)CCCn2nncc2CO[C@H]1CN(C)S(=O)(=O)c1cccc(C#N)c1	10	18
C[C@@H]1CN([C@H](C)CO)C(=O)c2cc(NS(=O)(=O)c3ccccc3)ccc2O[C@@H](C)CCCCO[C@H]1CN(C)S(=O)(=O)c1ccccc1	?	·
Cc1cc(C(=O)Nc2cccc3c2O[C@H](CN(C)C(=O)NC2CCCCC2)[C@H](C)CN([C@@H](C)CO)C3=O)n(C)n1	-6	-6
COc1cccc(S(=O)(=O)N(C)C[C@@H]2OCc3cnnn3CCCC(=O)N([C@H](C)CO)C[C@H]2C)c1	12	12
CC(C)CC#Cc1ccc2c(c1)O[C@H](CN(C)CC1CC1)[C@H](C)CN([C@H](C)CO)S2(=O)=O	?	·

Part of the list above in order of formula weight, rising:
SMILES	Vaccinia inh	Vaccinia inh Venus
CC=Cc1ccc2n(c1=O)C[C@@H]1[C@@H](CO)[C@H](C(=O)NCCC)[C@H]2N1CCC(F)(F)F (mixture of isomers)	19	13
CO[C@H]1CN(C)C(=O)c2ccc(NC(=O)c3cc(C)on3)cc2OC[C@H](C)NC[C@H]1C	-2	1
C[C@@H]1CN([C@@H](C)CO)C(=O)c2cc(NC(=O)CCN3CCOCC3)ccc2O[C@@H]1CN(C)C	7	7
CC(C)NC(=O)N(C)C[C@@H]1Oc2ccc(NC(=O)Nc3ccccc3)cc2CC(=O)N([C@H](C)CO)C[C@H]1C	19	12
C[C@H]1CN([C@@H](C)CO)C(=O)c2cc(NC(=O)Nc3ccc(C(F)(F)F)cc3)ccc2O[C@H]1CN(C)Cc1ccccc1	?	·
COc1ccc(NC(=O)N(C)C[C@@H]2Oc3c(NS(=O)(=O)c4ccc(Cl)cc4)cccc3C(=O)N([C@@H](C)CO)C[C@H]2C)cc1	6	3
Cc1ccc(S(=O)(=O)Nc2ccc3c(c2)CC(=O)N([C@@H](C)CO)C[C@H](C)[C@H](CN(C)S(=O)(=O)c2c(C)noc2C)O3)cc1	-21	70
C[C@@H]1CCCCO[C@H](CN(C)Cc2ccc(C(=O)O)cc2)[C@H](C)CN([C@H](C)CO)C(=O)c2cc(NC(=O)c3ccncc3)ccc2O1	22	7
C[C@@H]1CN([C@H](C)CO)C(=O)c2cc(NS(=O)(=O)c3ccccc3)ccc2O[C@@H](C)CCCCO[C@H]1CN(C)S(=O)(=O)c1ccccc1	?	·
COc1ccc(NC(=O)Nc2ccc3c(c2)C(=O)N([C@H](C)CO)C[C@H](C)[C@H](CN(C)C(=O)Nc2ccc4c(c2)OCO4)OCCCC[C@H](C)O3)cc1	7	-2

Continuation.
SMILES	Vaccinia inh	Vaccinia inh Venus
C[C@@H]1CN([C@H](C)CO)C(=O)c2cc(NS(=O)(=O)c3cn(C)cn3)ccc2O[C@@H]1CN(C)Cc1ccc(C(=O)Nc2ccccc2N)cc1	3	0
CCC(=O)N[C@H]1CC[C@H](CCNC(=O)Nc2ccc(F)cc2)O[C@@H]1CO	4	13
C[C@H]1CN([C@@H](C)CO)C(=O)c2cc(NC(=O)Nc3ccccc3)ccc2O[C@@H]1CN(C)Cc1ccc(C(F)(F)F)cc1	-30	-19
COc1ccc(S(=O)(=O)Nc2ccc3c(c2)C(=O)N([C@H](C)CO)C[C@H](C)[C@@H](CN(C)C(=O)c2ccncc2)OCCCC[C@H](C)O3)cc1	17	4
N#C[C@@H]1[C@@H](c2ccc(C#Cc3ccccc3F)cc2)[C@H](CO)N1C(=O)C1CC1	-12	-12
C[C@H](CO)N1C[C@H](C)[C@H](CN(C)CC2CCCCC2)Oc2ccc(NC(=O)Nc3ccc(C(F)(F)F)cc3)cc2C1=O	?	·
Cc1noc(C)c1NC(=O)N[C@@H]1CC[C@H](CC(=O)Nc2ccccc2)O[C@H]1CO	5	10
Cc1ccc(S(=O)(=O)N[C@@H]2CC[C@H](CCn3cc(C4CCCC4)nn3)O[C@H]2CO)cc1	-14	3
COc1ccc(NC(=O)Nc2ccc3c(c2)CC(=O)N([C@H](C)CO)C[C@H](C)[C@H](CN(C)S(=O)(=O)c2ccc(OC)cc2)O3)cc1	-24	-15
C[C@@H]1CN([C@H](C)CO)S(=O)(=O)c2ccc(C3=CCCC3)cc2O[C@@H]1CN(C)C(=O)c1cccnc1	16	19
O=C(Cc1cccnc1)N1[C@H](CO)[C@H](c2ccccc2)[C@@H]1CNCC1CCC1	-5	-1
COc1ccc2c3c([nH]c2c1)[C@H](CO)NCC31CCN(C(=O)C2CCOCC2)CC1	20	10
C=CCNC(=O)[C@H]1[C@@H]2C(=O)O[C@@H](c3ccccc3)[C@@H](c3ccccc3)N2[C@@H](c2ccccc2OCCO)[C@]12C(=O)Nc1ccc(C#CC3(O)CCCCCC3)cc12	?	·
C[C@@H]1CN([C@@H](C)CO)S(=O)(=O)c2ccc(/C=C/c3ccccc3)cc2O[C@H]1CN(C)Cc1cccnc1	?	·
O=C(C[C@H]1CC[C@H]2[C@@H](COC[C@H](O)CN2CCc2ccccc2)O1)NCCCN1CCOCC1	8	5
CN(C)C(=O)c1ccc(-c2ccc(C3[C@H]4CNC[C@@H]3N4C(=O)NC3CCCC3)cc2)cc1 (stereo partly specified)	13	6
O=C(C[C@@H]1C[C@H]2c3cc(NS(=O)(=O)c4ccc(F)cc4)ccc3O[C@H]2[C@H](CO)O1)N1CCCCC1	-4	-3
O=C(CN1CCOCC1)N1CC(=O)N2[C@@H](CO)[C@H](c3ccc(-c4ccccc4)cc3)[C@@H]2C1	19	4
CCS(=O)(=O)N1CC(=O)N2[C@H](CO)[C@@H](c3ccc(C#CCc4ccccc4)cc3)[C@H]2C1	4	-3
CC(=O)N(C)C[C@@H]1Oc2cc(-c3ccncc3)ccc2S(=O)(=O)N([C@H](C)CO)C[C@H]1C	20	9
C[C@@H]1CN([C@H](C)CO)C(=O)Cc2cc(NC(=O)C3CCCCC3)ccc2O[C@@H]1CN(C)S(=O)(=O)c1cn(C)cn1	5	7
Cc1ccc(S(=O)(=O)N(C)C[C@H]2Oc3ccc(NS(=O)(=O)c4ccccc4)cc3C(=O)N([C@H](C)CO)C[C@@H]2C)cc1	1	-1
Cc1cccc(NC(=O)Nc2ccc3c(c2)C(=O)N(C)[C@@H]2CC[C@H](CC(=O)O)O[C@H]2CO3)c1	1	6
O=C(O)C[C@H]1CC[C@@H](NC(=O)c2ccncc2)[C@@H](CO)O1	6	1
O=C(C[C@H]1CC[C@H]2[C@@H](COC[C@H](O)CN2Cc2ccc(C(F)(F)F)cc2)O1)NCCc1ccccc1	-16	13
CC(=O)N(C)C[C@@H]1Oc2cc(-c3ccc(F)cc3)ccc2S(=O)(=O)N([C@H](C)CO)C[C@H]1C	-6	-10
O=C(Cc1ccccc1)N1CC(=O)N2[C@H](CO)[C@@H](c3ccc(-c4cccc(F)c4)cc3)[C@H]2C1	?	·
C[C@@H]1CN([C@@H](C)CO)C(=O)Cc2cc(NC(=O)Nc3ccc4c(c3)OCO4)ccc2O[C@H]1CN(C)S(C)(=O)=O	9	7
CO[C@@H]1CN(C)C(=O)c2cc(NC(=O)c3ccc(F)cc3)ccc2OC[C@@H](C)N(C)C[C@@H]1C	-7	-3
C[C@@H]1CCCCO[C@H](CN(C)S(=O)(=O)c2ccccc2)[C@@H](C)CN([C@@H](C)CO)C(=O)c2cc(NC(=O)NC3CCCCC3)ccc2O1	-9	-7
CCCNC(=O)N[C@@H]1C=C[C@H](CC(=O)N2CCN(C)CC2)O[C@@H]1CO	1	10
Cc1noc(C)c1NC(=O)Nc1cccc2c1O[C@@H](CN(C)Cc1ccc(C(=O)O)cc1)[C@H](C)CN([C@@H](C)CO)C2=O	0	3
OC[C@@H]1[C@H](c2ccccc2)C2(CN(Cc3nccs3)C2)N1CCC(F)(F)F	6	1
Cc1noc(C)c1NC(=O)Nc1ccc2c(c1)CC(=O)N([C@H](C)CO)C[C@@H](C)[C@@H](CN(C)Cc1ccc(C(F)(F)F)cc1)O2	11	11
C[C@@H]1CCCCO[C@H](CN(C)S(=O)(=O)c2ccccc2)[C@H](C)CN([C@@H](C)CO)C(=O)c2cc(NC(=O)CCCN(C)C)ccc2O1	7	-8
COCC(=O)N1CC2(CCN(Cc3nccs3)CC2)c2c(n(C)c3cc(OC)ccc23)[C@H]1CO	-5	2
Cc1cc(C(=O)Nc2cccc3c2O[C@H](CN(C)C(=O)NC(C)C)[C@@H](C)CN([C@@H](C)CO)C3=O)n(C)n1	17	3
O=C(C[C@H]1CC[C@@H]2[C@H](COC[C@@H](O)CN2C(=O)Nc2ccc(C(F)(F)F)cc2)O1)NCCc1ccncc1	-14	-6
COc1ccc(NC(=O)N(C)C[C@@H]2Oc3ccc(NC(=O)Cc4ccccc4)cc3CC(=O)N([C@H](C)CO)C[C@@H]2C)cc1	22	22
C[C@@H]1CN([C@H](C)CO)S(=O)(=O)c2ccc(-c3cccc(C#N)c3)cc2O[C@H]1CN(C)C	18	11
COc1ccccc1C#Cc1ccc([C@H]2[C@@H](C#N)N(C(=O)C3CCC3)[C@@H]2CO)cc1	-26	-19
CO[C@H]1CN(C)C(=O)c2cc(NS(=O)(=O)CC(F)(F)F)ccc2OC[C@@H](C)N(Cc2nccs2)C[C@@H]1C	4	13
COc1cccc(NC(=O)N[C@@H]2C=C[C@H](CC(=O)N3CCOCC3)O[C@@H]2CO)c1	9	14

From PubChem BioAssay

The list is partial; rates above refer to the full screens.
